High-throughput results deposited in PubChem by several laboratories.
UCH37 inh: blocks the human deubiquitinase UCH37. inhibition, % (concentration not given with the values). purified proteasome/UCH37, Ub-AMC cleavage fluorescence. 0.33% of 330,000 active;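 active means mean of two replicates above 20%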;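 further: 0% = compound-free wells with enzyme and 100% = wells lacking proteasome; stock transfer was 100 nL into about 20 µL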
Target sequence (Q9Y5K5 whole entry, looked up): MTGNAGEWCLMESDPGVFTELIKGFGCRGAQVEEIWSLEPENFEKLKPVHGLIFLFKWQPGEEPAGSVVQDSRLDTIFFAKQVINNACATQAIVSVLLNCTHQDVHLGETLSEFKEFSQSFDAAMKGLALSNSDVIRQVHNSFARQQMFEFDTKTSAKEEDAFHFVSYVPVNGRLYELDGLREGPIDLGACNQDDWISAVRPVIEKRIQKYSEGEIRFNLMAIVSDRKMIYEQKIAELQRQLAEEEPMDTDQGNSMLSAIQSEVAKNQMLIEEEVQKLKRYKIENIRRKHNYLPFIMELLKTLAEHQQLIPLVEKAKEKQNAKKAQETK
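Assay system: Proteasome-bound UCH37. Buffer or medium: pH 7.4 Tris-HCl (50 mM) with ovalbumin, ATP-MgCl2, DTT. Incubation: 30 min preincubation with enzyme, 25 min cleavage at room temperature. Measured by: fluorescence, ex 355 nm, em 460 nm. Read-out basis: percent inhibition. Control set: wells without proteasome as full block, compound-free enzyme plus substrate as uninhibited.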
Bfl-1 A1 inh: inhibitors of the anti-apoptotic protein A1, read as caspase activation | MEF A1-2A-BIM cells, Caspase-Glo 3/7 luminescence, 3 h; percent of clofoctol response, vehicle zero | caspase activation, % (test concentration not listed) | 0.066% of 330,000 active | AID 2462;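 active means over half of replicate activation scores above 10%, or exactly half above 10 with the replicate mean above 10; inconclusive means replicate mean below 10 yet half the replicates above 10; inactive means over half of replicates below 10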;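 further: wells of about 30 µL received 50 nL stock; many hits fall short of the cut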
LANA-H2B inh: blocks KSHV LANA binding to histone H2A/H2B | AID 2629 | Q9QR71 | inhibition, % (no concentration beside the values) | cell-free LANA-H2A/H2B peptide, fluorescence polarization | 0.6% of 320,000 active; in the data active means inhibition mostly above about 10%, no sharp cut-off; inactive means mostly below about 6.7%;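 further: stock transfer was 7.5 nL into about 10 µL; 0% = median of vehicle wells and 100% = median of positive control wells; one replicate is shown; the record names a cut of 25% in any replicate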
RanGTP-Impb inh: inhibitors of RanGTP-importin-beta interaction, primary screen, biochemical, FRET, CFP-Ran, YFP-importin-beta, homogeneous. AID 2216. 1.1% of 300,000 active. inhibition, % (test concentration not listed). cell-free CFP-Ran/YFP-importin-beta FRET ratio;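 active means most replicates above 15%; inconclusive means exactly half above 15%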;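 further: 0% = DMSO wells and 100% = Ran loaded with GDP instead of GTP; wells of about 40 µL received 100 nL stock; the first replicate is given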
B2AR ag: human beta-2 adrenergic receptor agonism by FAP; Am2.2-beta2AR cells, FAP receptor internalization, flow cytometry; reference of the scale not given here; response, % (concentration not given with the values); 0.43% of 340,000 active; AID 504454;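 active means response above a set limit, near 3 SD of response in nonfluorescent compounds, cut at about 42% in these data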;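 further: stock transfer was 100 nL into about 11 µL; a reference agonist was the positive control; negative values mostly stem from fluorescent compounds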
Target sequence (P07550 whole entry, looked up): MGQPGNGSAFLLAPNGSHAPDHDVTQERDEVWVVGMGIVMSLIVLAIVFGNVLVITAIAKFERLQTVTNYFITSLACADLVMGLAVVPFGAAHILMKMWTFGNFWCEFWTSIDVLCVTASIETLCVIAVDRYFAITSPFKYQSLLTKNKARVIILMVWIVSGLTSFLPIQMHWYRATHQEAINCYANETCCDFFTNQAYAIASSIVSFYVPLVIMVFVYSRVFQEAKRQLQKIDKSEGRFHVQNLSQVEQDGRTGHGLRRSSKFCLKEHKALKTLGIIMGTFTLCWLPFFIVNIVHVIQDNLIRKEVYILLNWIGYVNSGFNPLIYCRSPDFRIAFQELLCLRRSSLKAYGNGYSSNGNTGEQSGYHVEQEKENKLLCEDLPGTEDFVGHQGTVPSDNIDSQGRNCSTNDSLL
T cruzi repl: blocks replication of Trypanosoma cruzi | T. cruzi beta-gal in NIH3T3, luminescence, 90 h | inhibition, % (concentration not given with the values) | 1.4% of 300,000 active;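 active means mean inhibition across valid replicates above about 55%, limit read from the data; inconclusive means mean below that limit but half or more replicates reach it; inactive means mean below it, under half of replicates reach it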;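 further: signal also drops with host cell toxicity which is not excluded here; 0% = plate median of DMSO wells and 100% = zero luminescence signal; higher percent means less beta-gal luminescence so fewer parasites; stock transfer was 50 nL into about 50 µL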
Beta apoptosis: beta cell apoptosis inhibition | INS-1E cytokine-induced death, ATP luminescence, 48 h; percent of positive-control rescue, neutral wells zero | protection from apoptosis, % (test concentration not listed) | 0.8% of 300,000 active;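 active means all replicates at 75% or more, or half of them and the mean; inconclusive means half reach 75% but not the mean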;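 further: 0% = cytokine-treated negative control wells and 100% = positive control rescue; higher means more ATP so stronger rescue from cytokine killing; wells of about 40 µL received 100 nL stock; the first replicate is given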
Calb FLC: affects C. albicans growth with fluconazole; AID 1979; 0.57% of 300,000 active; growth inhibition, % (test concentration not listed); C. albicans CaCi-2 (fluconazole-resistant clinical isolate) + fluconazole, Alamar Blue growth, 48 h;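 active means most replicates above 75%; inconclusive means exactly half above 75%; inactive means most below 75%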;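 further: all wells also contain fluconazole at 8 µg/ml as a sub-toxic cotreatment; 0% = median of DMSO wells and 100% = median of geldanamycin control wells; wells of about 8 µL received 7.5 nL stock; the first replicate is given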
Starred values were filed as active, the others as inactive; u = inconclusive; x = not tested or not shown.

SMILES | UCH37 inh | Bfl-1 A1 inh | LANA-H2B inh | RanGTP-Impb inh | B2AR ag | T cruzi repl | Beta apoptosis | Calb FLC
O=C(NNc1nccc(C(F)(F)F)n1)Nc1cccc(Cl)c1 | 3.8 | 1.3 | 5.2 | 0.8 | -4.4 | -10.1 | -1.8 | 4.8
CCOc1ccc(NC(=O)CCNC(=O)Cn2ccc3ccccc3c2=O)cc1 | -6.4 | 0.6 | 1.4 | 0.9 | 0.1 | 3.4 | -4.2 | 11.2
COc1ccnc(NCc2cccc(C(F)(F)F)c2)c1C#N | -4.5 | -0.6 | -5.6 | -4.6 | -3.0 | 43.5 | -2.3 | 4.6
Nc1cc(-c2ccc(Br)cc2)[nH]n1 | 0.7 | 0.3 | -3.5 | -2.1 | 0.6 | -22.9 | -9.2 | -2.0
CCCNC(=O)c1ccc(N(Cc2ccccc2)S(C)(=O)=O)cc1 | 0.0 | 0.7 | 7.6 | 1.0 | 6.0 | 9.0 | 0.6 | 2.3
CCOc1ccc(CCNC(=O)c2ccc(C)c(N3CCCC3=O)c2)cc1OCC | 3.7 | 0.5 | -0.8 | 5.7 | 5.8 | 19.8 | -7.1 | -5.7
O=C(OCC(=O)N1CCCC1)c1c(Cl)ccc(Cl)c1Cl | 2.1 | 0.3 | -4.7 | 2.6 | -11.4 | -0.1 | -2.4 | -10.5
CCOc1ccc(-n2nc3c(=O)n(CCN4CCCCC4)nc(C)c3c2C)cc1 | -2.5 | 0.5 | 3.8 | -1.3 | -4.8 | -1.4 | 1.7 | 3.8
C=CCC(C=C)[N+]1(CC(=O)OC)CCCCC1 (stereo unspecified) | -0.9 | 0.0 | -0.7 | -0.5 | 6.8 | -8.3 | x | -3.9
Cc1cccc(CSc2nncc(=O)[nH]2)c1 | 1.4 | 0.6 | 0.4 | 0.7 | 20.5 | -15.3 | x | 10.1
CCOc1ncccc1C(=O)Nc1ccc(OC)c(S(=O)(=O)N2CCCCC2)c1 | -16.8 | 0.0 | -4.0 | 7.8 | -4.7 | 34.9 | -14.6 | -9.7
CCOC(=O)c1ccc(N2C(=O)c3n[nH]c(C)c3C2c2ccco2)cc1 (stereo unspecified) | 4.0 | -0.5 | 0.9 | 3.6 | -15.4 | 1.9 | 1.7 | 0.2
C/C(=N\Nc1ccccc1)c1c(O)cc(C)oc1=O | x | 0.6 | 2.9 | 1.6 | 3.9 | 2.3 | 0.6 | u
CNC(=S)N(C)/N=C1/C(=O)N(Cc2c(Cl)cccc2Cl)c2ccccc21 | x | 0.5 | -2.4 | x | 28.7 | x | 0.1 | x
Cc1cccc(NC(=S)N(c2ccccc2)C(C)C)c1C | 4.2 | -0.4 | 2.6 | -3.6 | -2.2 | -2.8 | 0.5 | -11.0
O=C(CSC(=S)N1CCOCC1)c1cc2ccccc2oc1=O | 2.9 | -0.4 | -0.7 | 1.9 | 2.5 | -11.7 | -1.9 | -3.5
COc1cc(Br)c(CCNC(=O)Cc2ccccc2)cc1OC | 1.8 | -0.3 | 5.0 | 0.3 | -3.7 | -11.6 | 2.5 | 37.8
C=CCn1c(COc2cccc3ccc(C)nc23)nnc1SCC(=O)O | -5.6 | -0.3 | 6.1 | -0.6 | 4.6 | -14.5 | -6.1 | 6.7
CSCCC1NC2(C(=O)Nc3c(C)cc(Cl)cc32)[C@@H]2C(=O)N(C3CCCC3)C(=O)[C@H]12 (stereo partly specified) | 1.2 | -0.1 | 2.8 | -0.4 | -17.7 | -7.5 | x | 83.9*
O=C(CN1C(=O)CC(c2ccco2)Sc2ccccc21)NCc1ccc2c(c1)OCO2 (stereo unspecified) | 3.7 | 0.8 | 3.0 | 1.1 | -1.1 | 16.4 | -3.4 | -30.8
Cc1cc(O)cc2c1C(=O)/C(=C/c1ccco1)O2 | -16.6 | -0.3 | 3.9 | -27.0 | 6.1 | -13.2 | -5.2 | 42.7
C=CCNC(=O)CSc1n[nH]c(-c2cc(Cl)ccc2OC)n1 | -1.0 | 0.2 | -5.2 | 6.3 | -18.8 | -3.0 | -3.6 | 6.7
Cc1c(Cl)cccc1NC(=S)N1CCC(C(N)=O)(N2CCCCC2)CC1 | 1.9 | -0.6 | -5.9 | u | -2.6 | -17.2 | -12.3 | -10.5
O=C(O)CCC(=O)Nc1sc2c(c1C(=O)Nc1cccc3ccccc13)CCCCC2 | 0.8 | 0.5 | -3.6 | 4.8 | 6.2 | -1.9 | 4.1 | 32.0
O=C(c1ccco1)N1CCN(C(=O)N2CCOCC2)CC1 | 1.4 | -0.8 | 4.2 | 2.8 | -4.9 | -1.7 | -4.8 | 19.6
CCOc1ccccc1NC(=O)NC1CC2CCCC(C1)N2Cc1nnnn1CCc1ccccc1 (stereo unspecified) | 3.9 | -1.5 | 7.6 | -1.8 | -5.2 | 4.7 | 4.0 | 35.5
Cc1nn(-c2ccccc2)c(C)c1C(=O)NCc1ccc(F)cc1 | -0.2 | 0.0 | -1.1 | 2.5 | -4.9 | -20.2 | 3.5 | -7.0
CCOc1ccc(CCNC(=O)COC(=O)c2cccnc2Cl)cc1OCC | -2.5 | -0.1 | 11.5 | -0.8 | -3.9 | -16.8 | -9.3 | 2.6
CN(C)S(=O)(=O)c1ccc(C(=O)NCc2ccccc2)cc1 | 0.3 | -0.8 | 1.3 | 0.3 | 0.5 | -17.2 | -3.4 | -23.8
O=C(O)CSC1CC(=O)N(c2cccc(Cl)c2)C1=O (stereo unspecified) | 1.4 | 0.9 | -0.4 | -0.1 | 3.1 | -12.8 | -2.2 | 14.8
CCOC(=O)c1sc(N=NC2=C(O)CC(C)(C)CC2=O)c(C(=O)OCC)c1C | 4.1 | 0.8 | 0.5 | 1.3 | -3.4 | -5.2 | -2.9 | 7.7
CCN(CC)C(=O)c1cccc(NC(=O)C2CCN(C(=O)c3cccs3)CC2)c1 | 4.3 | 1.1 | -2.1 | x | -306.6 | x | -17.6 | x
COc1ccc(CN2CCN(C(=O)Cn3ncn4cccc4c3=O)CC2)c(OC)c1OC | -0.4 | -0.5 | 5.7 | 5.5 | -2.6 | -1.9 | -3.5 | -2.3
CCOc1cc(CNCc2ccncc2)cc(Br)c1OCc1ccc(F)cc1 | 5.7 | 0.0 | 0.5 | -4.2 | -0.3 | 51.3 | 6.0 | -13.9
CCOC(=O)Cn1c(CN2CCc3ccccc3C2)nc2c1c(=O)n(C)c(=O)n2C | 5.3 | -0.2 | 3.4 | 4.0 | -2.9 | -10.1 | -3.7 | 4.3
CCCCC(=O)Nc1nnc(-c2ccco2)o1 | 5.4 | 0.1 | -0.8 | -1.3 | 1.7 | 1.0 | -3.6 | -12.0
CCOC(=O)c1ccc(N=c2sc(C(=O)OC)cc(=O)n2C2CC2)cc1 | 4.6 | -0.1 | 5.0 | 0.9 | -3.2 | -3.0 | 3.7 | 2.7
OC1(c2ccc(Br)cc2)CCN(Cc2cccc(Br)c2)CC1 | 0.6 | 1.2 | -5.3 | 3.9 | 4.5 | 48.4 | 9.1 | 14.3
CSCC[C@H](NC(=O)NCCc1ccc(F)cc1)C(=O)O | 2.1 | 0.3 | 4.6 | 4.1 | -0.2 | -7.1 | -7.6 | -1.1
O=C(NN1CCOCC1)NC12CC3CC(CC(C3)C1)C2 | 2.8 | 0.4 | 2.9 | 0.0 | 6.3 | -6.2 | 2.3 | 8.9
C=CCNc1ccc(F)c(F)c1N1CCCCCC1=O | 3.5 | -0.2 | 7.1 | -3.1 | 0.3 | 10.2 | -3.0 | -15.0
CC(C)(C)NC(=O)C(c1ccncc1)N(Cc1cccs1)C(=O)Cn1nnc(-c2ccc(F)cc2)n1 (stereo unspecified) | 0.8 | 0.2 | 4.3 | u | 6.0 | 1.8 | 25.3 | -21.7
O=C1C=C(c2cccnc2)CCC1 | -0.8 | 1.2 | 1.3 | 0.9 | -13.5 | -21.0 | 2.9 | -1.5
COc1ccc(C(C(=O)NCC2CCCO2)N(C(=O)CNC(=O)c2ccco2)c2cc(C)ccc2C)cc1OC (stereo unspecified) | 3.1 | 0.0 | 1.1 | 4.2 | -1.8 | -0.3 | -15.1 | -5.0
c1ccc(-c2ccc(-c3nc(-c4cccnc4)no3)cc2)cc1 | -0.8 | -6.5 | -2.5 | 0.5 | 3.3 | -7.7 | 7.2 | -18.0
CCOc1cc(S(=O)(=O)N2CCC(C(N)=O)CC2)ccc1F | 3.6 | 0.2 | -1.7 | 2.4 | -4.7 | -2.2 | -6.5 | -19.5
O=C(c1cc(-c2ccncc2)nc2ccc(Cl)cc12)N1CCN(C(=O)C2CCCO2)CC1 (stereo unspecified) | 0.4 | -0.5 | 3.2 | 0.8 | 4.3 | -3.9 | -6.0 | 1.8
CCn1c(C(=O)N2CCC(C(=O)NCc3ccc(OC)cc3)CC2)cc2sccc21 | 6.4 | 0.0 | 0.9 | 1.4 | 0.8 | -10.7 | x | -0.9
N#C/C(=C\c1ccc(-c2ccccc2[N+](=O)[O-])o1)C(=O)N1CCOCC1 | 13.1 | 0.8 | 0.5 | 1.2 | -4.0 | 12.5 | -2.5 | 32.9
COc1ccc(-n2c(=O)c3ccccc3n(CC(=O)NC3CCCCC3)c2=O)c(OC)c1 | 0.1 | 0.5 | 0.6 | -4.1 | -3.5 | -11.8 | 0.0 | -2.7
COc1ccccc1C(=O)COC(=O)CN1C(=O)c2ccccc2C1=O | 5.0 | 0.7 | 3.1 | -0.1 | 4.0 | -8.3 | -3.3 | -2.0
COc1ccc(NC(=O)COC(=O)CCNS(=O)(=O)c2ccccc2)cc1OC | 4.2 | 0.0 | 3.1 | -5.3 | 10.3 | -12.3 | -0.8 | -10.2
CCOC(=O)c1ccc(NC(=O)CSc2nc(N3CCOCC3)nc(N3CCOCC3)n2)cc1 | 5.9 | 0.7 | -2.2 | 2.2 | -3.9 | 12.1 | -2.9 | 14.4
COc1ccccc1CNC(=O)CN1CCC(NC(=O)c2ccccc2F)CC1 | 2.0 | 1.5 | -4.3 | 4.2 | 2.2 | -6.9 | -3.9 | -5.3
CCN(CC(=O)Nc1ccc(NC(C)=O)cc1)C(=O)C1CCCN(C(=O)c2ccc(Cl)cc2)C1 (stereo unspecified) | 7.3 | 1.4 | 1.2 | x | -6.5 | x | 1.4 | x
O=C(COC(=O)c1cc[n+]([O-])cc1)Nc1ccc([N+](=O)[O-])cc1 | 5.0 | -0.2 | 1.5 | 0.1 | -1.2 | 1.2 | -3.6 | 2.9
CC(C)(C)c1csc(NC(=O)c2cccnc2Cl)n1 | 5.3 | 0.0 | 3.2 | -3.0 | 2.3 | x | 1.7 | -4.6
CCn1cc([N+](=O)[O-])c(C(=O)N2CCCc3ccccc32)n1 | 2.4 | x | x | -1.8 | 11.2 | 3.9 | x | 10.7
CCCCNC(=O)C1C2C=CC(C2)C1C(=O)O (stereo unspecified) | 3.3 | 0.3 | 1.7 | 0.5 | -0.2 | -7.4 | -4.9 | -6.7
COc1cccc(NC(=O)C2C3C=CC4(O3)C2C(=O)N(CCCN2CCCC(C)C2)C4C(=O)NC2CCCCC2C)c1 (stereo unspecified) | -0.3 | -0.3 | -7.0 | -0.4 | 4.6 | -10.5 | -2.2 | 0.2
